MARV entry inh – blocks Marburg virus binding to or entry into cells; Marburg virus pseudotyped entry inhibition, cell reporter; control for the full effect not named in the record; about a third of the inactives were read at about 46 µM; Potency, µM (highest dose often 37.8 µM), for inactives: top-dose activity change, negative = inhibition, hits mostly inhibitors; 1.8% of 300,000 active; AID 540276; active = well fitted inhibition curve with a large enough effect; inconclusive = small, poorly fitted or top-dose-only effect, or effect the other way; inactive = flat fitted curve, though single readings scatter; tested in HEK293 cells; about a fifth of its hits are not listed in these tables; note: % is set by controls: 0 for no effect and ±100 for the full control effect; luciferase read-out
2A StopGo – FMDV 2A StopGo reporter, luciferase signal | 1.2% of 410,000 active | Potency, µM (doses to about 57.9 µM), for the others: at the highest dose signal change, negative = less light | human cells with a luciferase reporter of 2A StopGo recoding; control for the full effect not named in the record | AID 1159524; active = well fitted falling curve with a large enough effect; inconclusive = small, poorly fitted or top-dose-only effect; inactive = no such curve, though single readings can be large or run the other way; tested in HEK293T cells; note: % is set by controls: 0 for no effect and ±100 for the full control effect; nearly all actives have a fitted effect of over 45% in size; luciferase light after 4 h
RE007 growth inh – less growth of the S. pombe RE007 Vpr strain; Potency, µM (top dose mostly 92.2 µM), inactives show at the top dose activity change, negative = less growth; 0.21% of 360,000 active; AID 651644; S. pombe RE007 Vpr strain, BacTiter-Glo ATP luminescence, 24 h; control for the full effect not named in the record; active = well fitted falling curve with a large enough effect; inconclusive = small, poorly fitted or top-dose-only effect; inactive = no such curve, though single readings can be large or run the other way;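 note: % is set by controls: 0 for no effect and ±100 for the full control effect; nearly all actives have a fitted effect of over 50% in size; the assay follows cell death caused by Vpr and the record does not say whether a fall means rescue or toxicity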
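Fission yeast strain RE007, carrying one chromosomally integrated HIV-1 vpr copy, was seeded at OD 0.01 in PMG+AL medium with 23 nL pinned compound. After 24 h at 30 °C and 99% humidity, viability was read by BacTiter-Glo luminescence.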
Cruzain noTriton – blocks cruzain activity in detergent-free assay; P25779; purified cruzain, Z-FR-AMC fluorescence, no detergent; Potency, µM, for the others: max response, negative = inhibition, actives largely listed as inhibitors; 2.3% of 200,000 active; AID 1476; active = well fitted curve in the direction sought with a large enough effect; inconclusive = small, poorly fitted or top-dose-only effect, or another doubt; inactive = no such curve, though single readings can be large; an effect the other way counts as inactive or inconclusive;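 note: plate controls were enzyme without inhibitor for no effect and buffer without enzyme for full effect; nearly all actives have a fitted effect of over 40% in size; top concentration of the series not given in the record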
Target sequence (P25779 123-467 limits assumed): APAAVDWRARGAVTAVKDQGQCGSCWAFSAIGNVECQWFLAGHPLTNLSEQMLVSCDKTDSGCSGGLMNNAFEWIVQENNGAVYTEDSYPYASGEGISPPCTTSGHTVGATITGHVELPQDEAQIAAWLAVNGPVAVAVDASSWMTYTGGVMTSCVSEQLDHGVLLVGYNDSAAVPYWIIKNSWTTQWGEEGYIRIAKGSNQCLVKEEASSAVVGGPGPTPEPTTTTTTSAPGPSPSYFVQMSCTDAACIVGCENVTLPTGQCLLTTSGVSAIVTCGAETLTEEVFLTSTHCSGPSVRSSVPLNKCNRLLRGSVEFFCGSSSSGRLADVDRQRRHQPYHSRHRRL
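Purified cruzain at 1.5 nM, pre-incubated 15 min with compound at room temperature in 100 mM sodium acetate pH 5.5, 5 mM DTT, 0.00005% Triton X-100. Reaction started with 2 uM Z-FR-AMC; AMC fluorescence increase over 60 s gives rate.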
Lassa entry inh – Lassa virus entry inhibition; Potency, µM (series often up to 37.9 µM), for inactives: top-dose activity change, negative = inhibition, actives largely listed as inhibitors; Lassa virus pseudotype entry inhibition, cell reporter; control for the full effect not named in the record; 1.2% of 300,000 active; active means well fitted inhibition curve with a large enough effect; inconclusive means small, poorly fitted or top-dose-only effect, or effect the other way; inactive means flat fitted curve, though single readings scatter; tested in HEK293 cells; note: % is set by controls: 0 for no effect and ±100 for the full control effect; nearly all actives have a fitted effect of over 50% in size; luciferase read-out
Cruzain Triton – inhibitors of Trypanosoma cruzi cruzain with detergent; P25779; purified cruzain, Z-FR-AMC fluorescence, 0.01% Triton; Potency, µM, inactives show max response, negative = inhibition, most hits filed as inhibitors; 0.43% of 200,000 active; AID 1478; active = well fitted curve in the direction sought with a large enough effect; inconclusive = small, poorly fitted or top-dose-only effect, or another doubt; inactive = no such curve, though single readings can be large; an effect the other way counts as inactive or inconclusive;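 note: plate controls were neutral wells for no effect and buffer without enzyme for full effect; nearly all actives have a fitted effect of over 40% in size; top concentration of the series not given in the record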
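Z-FR-AMC hydrolysis (2 uM substrate) by cruzain (1.5 nM) monitored kinetically at ex 360/em 450 nm after 15 min room-temperature compound exposure; 0.01% Triton X-100, pH 5.5, 5 mM DTT.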
SARS PLpro yeast – inhibitors of SARS-CoV papain-like protease in yeast; AID 485353; 0.19% of 330,000 active; S. cerevisiae expressing SARS-CoV PLpro, growth rescue; control for the full effect not named in the record; Potency, µM (titrated, usually from 32.9 µM), for inactives: at the top dose activity, positive = growth rescue; note: 0% is about no effect; nearly all actives have a fitted effect of over 55% in size; growth read by luminescence after 48 h
NS1 inh – blocks influenza NS1 protein function; S. cerevisiae slowed by influenza A NS1, growth recovery by OD600; Potency, µM (top dose mostly 46.1 µM), without a hit: at the top dose activity, positive = more growth; 0.4% of 270,000 active; AID 2326; note: actives are rising curves; nearly all actives have a fitted effect of over 50% in size
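Compounds were scored for reversing the slow growth caused by influenza A NS1 in S. cerevisiae, measured by optical density at 600 nm. Assay medium contained 2% galactose at pH 6.0; NS1-free yeast of the same strain were the positive control.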
Starred values were filed as active, the others as inactive; ? = inconclusive; . = no result given; & = joins results of further samples; [ ] = dose if it differs, or a comment. Unless noted, calls come from the whole dose curve; as a rule, active means well fitted rising curve with a large enough effect; inconclusive means small, poorly fitted or top-dose-only effect; inactive means no such curve, though single readings can be large or run the other way. Potency is the fitted concentration of half-maximal effect.

#1 N#Cc1ccc(S(=O)(=O)N2CCc3[nH]c4ccc(F)cc4c3C2)cc1
#2 CC(=O)Nc1ccc(SC(Sc2ccc(NC(C)=O)cc2)c2ccccc2)cc1
#3 COc1cccc(/C=C/c2nc(C#N)c(N3CCN(C)CC3)o2)c1
#4 CC(C)C(=O)Nc1ccc(NC(=S)NC(=O)c2cc3ccccc3o2)cc1
#5 CC(C)(C)S(=O)(=O)c1cnc(-c2ccc(Cl)cc2)nc1N
#6 Cc1ccc(SCC(=O)NCCSC(C)(C)C)cc1
#7 COc1cccc(OC)c1NC(=O)CN1CCN(C)CC1
#8 COc1ccc(OC)c(-c2cc(C(=O)NCc3ccco3)no2)c1
Compound,1,2,3,4,5,6,7,8
MARV entry inh,?,16%,5%[46.1 µM],11%[46.1 µM],.,?,3%[46.1 µM],-3%
2A StopGo,-26%,-15%,6%,-4%,46%[activator],35%[activator],-6%,0%
RE007 growth inh,-10%,54%,.,6%,16%,0%,7%,8%
Cruzain noTriton,.,.,3.2µM*,.,.,5%,.,-6%
Lassa entry inh,?,?,-8%[46.1 µM],-16%,.,-7%,23%,-8%
Cruzain Triton,.,.,25µM*,.,.,3.1%,.,-8.8%
SARS PLpro yeast,-1%,.,.,1%,0%,3%,0%,-2%
NS1 inh,-2%,.,.,.,-4%,0%,3%,-48%

2 entries from above, with each value named:
6: Cc1ccc(SCC(=O)NCCSC(C)(C)C)cc1
  MARV entry inh: ? | 2A StopGo: 35%[activator] | RE007 growth inh: 0% | Cruzain noTriton: 5% | Lassa entry inh: -7% | Cruzain Triton: 3.1% | SARS PLpro yeast: 3% | NS1 inh: 0%
7: COc1cccc(OC)c1NC(=O)CN1CCN(C)CC1
  MARV entry inh: 3%[46.1 µM] | 2A StopGo: -6% | RE007 growth inh: 7% | Cruzain noTriton: . | Lassa entry inh: 23% | Cruzain Triton: . | SARS PLpro yeast: 0% | NS1 inh: 3%

Next part
#9 O=C(NC1CCCCCCC1)c1c(O)c2ccccc2[nH]c1=O
#10 Cc1ccc(NC(=O)N2CCOCC2)c(C)c1
#11 O=C(CNC1CCCCC1)Nc1cc(S(=O)(=O)N2CCOCC2)ccc1Cl
#12 Nc1cc(=O)[nH]c(SCC(=O)Nc2cc(S(=O)(=O)N3CCOCC3)ccc2Cl)n1
#13 COc1ccc(OCC(=O)Nc2ccc(S(=O)(=O)N3CCCCC3)cc2)cc1
#14 CC(=O)Nc1ccc(NCN2C(=O)C3C4CCC(C4)C3C2=O)cc1 (stereo not given)
#15 O=C(NCC(c1ccco1)N1CCc2ccccc21)c1ccccc1F (stereo not given)
#16 Cc1nc(NC(=O)CN2CCN(c3ccccc3F)CC2)sc1C(=O)N(C)C
Compound,9,10,11,12,13,14,15,16
MARV entry inh,6%,5%,-4%[46.1 µM],6%[46.1 µM],5%,10%,0%,.
2A StopGo,.,-11%,-15%,2%,-2%,14%,0%,-7%
RE007 growth inh,-10%,14%,-19%,4%,-1%,12%,20%,-18%
Cruzain noTriton,?,-3%,.,.,.,5%,.,.
Lassa entry inh,0%,12%,.,-4%[46.1 µM],-5%,-6%,-24%,.
Cruzain Triton,3.7%,-4.1%,.,.,.,12%,.,.
SARS PLpro yeast,-2%,7%,-1%,2%,-3%,4%,-2%,1%
NS1 inh,-4%,-11%,.,.,-53%,13%,.,20%

#17 C[C@@H]1CCC2[C@](C)(CO)[C@@H](O)CC[C@]2(C)[C@@]12CCC(CO)(CCO)O2 (stereo not given in full)
#18 COC(=O)/C(=C\C=C\c1ccccc1)NC(=O)c1ccccc1
#19 Cc1cc(Oc2ccc(-c3nnc(-c4ccccc4)o3)cc2[N+](=O)[O-])ccc1Cl
#20 COc1ccc(CNC(=O)Cn2cc3c(n2)CCCCC3)cc1
#21 O=C1NC(=O)N(c2ccccc2)C(=O)/C1=C\c1ccc([N+](=O)[O-])s1
#22 COc1ccccc1C(=O)CC(=O)c1ccccc1
#23 Cn1c(SCC(=O)Nc2ccc3c(c2)OCCO3)nnc1-c1ccncc1
#24 O=C(NCc1ccc(F)cc1)c1cnn2ccccc12
Compound,17,18,19,20,21,22,23,24
MARV entry inh,.,4%[46.1 µM],-1%,.,-1%[46.1 µM],.,?,.
2A StopGo,5%,-7%,0%,-18%,-25%,80%[activator],-17%,37%[activator]
RE007 growth inh,-8%,1%,.,-12%,?,?,10%,0%
Cruzain noTriton,.,.,13µM*,6%,.,.,.,8%
Lassa entry inh,.,-11%,14%,.,2%[46.1 µM],.,0%,.
Cruzain Triton,.,.,0.1%,1.5%,.,.,.,1.1%
SARS PLpro yeast,-2%,-11%,-9%,15%,-4%,-2%,2%,-8%
NS1 inh,1%,.,23%,-6%,-3%,-8%,5%,-8%

#25 Cc1ccc2cc(CCNC(=O)c3ccc4c(c3)OCO4)c(=O)[nH]c2c1
#26 CCOC(=O)c1ccc(-n2ccnc2)c(NC(=O)c2ccc(Cl)cc2)c1
#27 Cc1cc(=O)n(CCc2ccccc2)c(O)c1C#N
#28 O=C(NCCN1CCOCC1)C(=O)NCC1OCCCN1S(=O)(=O)c1cc(F)ccc1F (stereo not given)
#29 COc1ccc(Cc2nnc(Nc3ccc(Cl)cc3)[nH]c2=O)cc1
#30 Cc1cc2n(c(=O)c1C#N)CCCN2c1cccc(Cl)c1
#31 Cc1ccnc(NC(=O)c2ccc(N3C(=O)CCC3=O)cc2)c1
#32 Cc1cc(C)c2oc(C(=O)N(Cc3ccccc3)c3ccccn3)cc(=O)c2c1
Compound,25,26,27,28,29,30,31,32
MARV entry inh,.,2%,?,.,-2%,-25%,?,1%[46.1 µM]
2A StopGo,?,-14%,8%,-13%,7%,-16%,21%,20%
RE007 growth inh,10%,.,-10%,-5%,10%,-2%,6%,1%
Cruzain noTriton,8%,26%,-2%,.,.,-7%,7%,.
Lassa entry inh,.,-1%,?,.,.,-21%,?,6%[46.1 µM]
Cruzain Triton,-4.2%,-2.0%,-8.8%,.,.,-7.1%,5.1%,.
SARS PLpro yeast,3%,-13%,-18%,0%,-1%,8%,-12%,-1%
NS1 inh,4%,4%,-8%&7%,3%,4%,-2%[9.22 µM],5%,2%

Retrieved one by one from the entries so far (2):
#31 Cc1ccnc(NC(=O)c2ccc(N3C(=O)CCC3=O)cc2)c1
#30 Cc1cc2n(c(=O)c1C#N)CCCN2c1cccc(Cl)c1
Compound,31,30
MARV entry inh,?,-25%
2A StopGo,21%,-16%
RE007 growth inh,6%,-2%
Cruzain noTriton,7%,-7%
Lassa entry inh,?,-21%
Cruzain Triton,5.1%,-7.1%
SARS PLpro yeast,-12%,8%
NS1 inh,5%,-2%[9.22 µM]

Following part:
#33 COc1cccc(CNC(=O)CSc2ncc(S(=O)(=O)c3ccc(Br)cc3)c(=O)[nH]2)c1
#34 CCc1nn(CC(=O)Nc2c(C)cccc2C)c(=O)c2cc3sccc3n12
#35 CSc1nc2ccc(NC(=O)c3ccc(Cl)s3)cc2s1
#36 CCOC(=O)c1c(C)[nH]c(C)c1S(=O)(=O)NCc1ccccc1C
#37 COc1ccccc1N1CCN(C(=O)c2cc3c(=O)oc4ccc(C)cc4c3s2)CC1
#38 CCCCN(C(=O)c1cc(Cl)nc2ccccc12)c1c(N)n(CCCC)c(=O)[nH]c1=O
#39 Cc1cc(OCc2nn[nH]n2)c2c(C)c(CC(=O)O)c(=O)oc2c1
#40 Cc1cc(OC(C)C(=O)NCc2ccncc2)c2c(C)cc(=O)oc2c1 (stereo not given)
Compound,33,34,35,36,37,38,39,40
MARV entry inh,6%[46.1 µM],5%[46.1 µM],.,.,7%[46.1 µM],0%[46.1 µM],0%,.
2A StopGo,-10%,-5%,23%,52%[activator],-8%,-3%,12%,2%
RE007 growth inh,.,.,-2%,-8%,.,12%,11%,8%
Cruzain noTriton,13%,3%,.,.,-3%,.,-1%,.
Lassa entry inh,19%[46.1 µM],.,.,.,18%[46.1 µM],1%,?,.
Cruzain Triton,-6.3%,-1.6%,.,.,3.4%,.,-23%,.
SARS PLpro yeast,.,.,1%,1%,.,2%,2%,8%
NS1 inh,.,.,-3%,-7%,.,.,-6%,-9%

#41 CN1CCN(C(=O)C2=C[C@@H](c3ccccc3)C[C@@H](OCc3ccc(CO)cc3)O2)CC1
#42 COc1ccc(CCn2c(-c3ccc(F)cc3)nc3c(c(=O)c4ccccc4n3C)c2=O)cc1OC
#43 CC(C)(C)c1ccc(OCCC(=O)Nc2cccc(S(=O)(=O)NC3=NCCCCC3)c2)cc1
#44 S=C(NNc1cccc(Cl)c1)NC1CCCCC1
#45 Cc1ccc(NC(=O)C2OCCc3ccccc32)cc1 (stereo not given)
#46 O=C1COc2ccc(C(=O)COC(=O)CCSc3ccccc3)cc2N1
#47 CC1=CC(=C2N=C(c3ccccc3)OC2=O)C=C(C)O1
#48 CN(CC(=O)N1CCOCC1)S(=O)(=O)c1cc(Cl)ccc1Cl
#49 O=C(O)CCCC(=O)Nc1ccccc1-n1ccnc1
#50 COc1ccc(CNC(=O)CSc2nnnn2-c2ccc(O)cc2)cc1
#51 COc1ccc(S(=O)(=O)N[C@@H](CSCc2ccccc2)C(=O)O)cc1
Compound,41,42,43,44,45,46,47,48,49,50,51
MARV entry inh,.,-4%[46.1 µM],?,-17%[46.1 µM],?,.,?,?,?,?,1%[46.1 µM]
2A StopGo,-10%,-5%,?,39%[activator],50%[activator],1%,0%,-4%,11%,-18%,38%[activator]
RE007 growth inh,7%,9%,-9%,-22%,20%,20%,-22%,1%,1%,17%,17%
Cruzain noTriton,.,.,.,.,.,.,-5%,.,4%,3%,.
Lassa entry inh,.,10%[46.1 µM],10µM*,10%,14%,.,?,-26%[46.1 µM],8%,?,-4%[46.1 µM]
Cruzain Triton,.,.,.,.,.,.,0.3%,.,2.5%,-0.9%,.
SARS PLpro yeast,0%,0%,-2%,-36%,-6%,0%,0%,1%,-3%,2%,0%
NS1 inh,4%,-2%,.,.,0%,-2%,-16%,?,2%,-5%,7%

High-throughput results: PubChem, National Center for Advancing Translational Sciences (NCATS)
